Screens (PubChem)
GLA inh pH 4.5 – qHTS Assay for Inhibitors of Human alpha-Galactosidase at pH 4.5; Alpha-galactosidase A (Homo sapiens), P06280; purified enzyme, 4-MU-alpha-Gal fluorescence, pH 4.5; activity change, negative = inhibition, % at 105 µM; 230,000 tested, under 10 active; AID 1467, 2008; inconclusive = small, poorly fitted or top-dose-only inhibition, or a rising curve; inactive = flat fitted curve, though single readings scatter; no compound was filed as active;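 note: 0% = full activity with enzyme and -100% = basal without enzyme; dose as in the result columns while the protocol names 77 µM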
Rango complex inh – qHTS Assay for Inhibitors of Rango (Ran-regulated importin-beta cargo) - Importin beta complex formation; Importin subunit beta-1 (Homo sapiens), Q14974; Rango CFP/YFP FRET sensor + importin beta, 45 min; Potency, µM (series often up to 92.2 µM), for inactives: at the highest dose inhibition of complex formation; 0.031% of 340,000 active; AID 540263, 2011; active = rising FRET ratio curve, often small or poorly fitted; inconclusive = mostly compound fluorescence or quenching in the first reads; inactive = flat curves in all reads;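 note: potency is the fitted concentration of half-maximal effect; 0% = DMSO wells and 100% = buffer wells lacking importin beta; nearly all actives have a fitted effect of over 15% in size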
Target sequence (Q14974 whole entry, looked up): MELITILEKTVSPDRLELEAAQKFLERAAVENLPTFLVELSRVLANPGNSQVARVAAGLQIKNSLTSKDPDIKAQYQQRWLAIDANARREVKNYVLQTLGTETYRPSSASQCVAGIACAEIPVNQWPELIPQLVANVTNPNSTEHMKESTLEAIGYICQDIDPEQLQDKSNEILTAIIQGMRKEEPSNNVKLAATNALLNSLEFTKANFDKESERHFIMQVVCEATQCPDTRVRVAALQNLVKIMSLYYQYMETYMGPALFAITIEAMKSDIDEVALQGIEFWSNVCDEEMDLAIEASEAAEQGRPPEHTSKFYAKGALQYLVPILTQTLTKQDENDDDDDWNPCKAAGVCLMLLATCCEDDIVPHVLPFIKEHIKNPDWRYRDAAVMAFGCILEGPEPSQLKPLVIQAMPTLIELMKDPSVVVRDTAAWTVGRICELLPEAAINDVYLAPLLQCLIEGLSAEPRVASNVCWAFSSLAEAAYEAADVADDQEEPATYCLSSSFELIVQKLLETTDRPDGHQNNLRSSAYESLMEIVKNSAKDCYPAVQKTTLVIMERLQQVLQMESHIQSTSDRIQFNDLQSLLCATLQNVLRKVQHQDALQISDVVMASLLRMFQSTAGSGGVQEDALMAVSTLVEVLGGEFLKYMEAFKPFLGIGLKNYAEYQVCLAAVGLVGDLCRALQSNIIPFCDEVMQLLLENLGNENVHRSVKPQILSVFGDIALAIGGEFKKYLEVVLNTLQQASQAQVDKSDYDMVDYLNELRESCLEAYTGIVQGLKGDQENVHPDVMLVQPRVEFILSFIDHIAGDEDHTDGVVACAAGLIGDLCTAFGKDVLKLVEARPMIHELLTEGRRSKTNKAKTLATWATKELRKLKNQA
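FRET biosensor Rango (snurportin 1 IBB between N-terminal EYFP and C-terminal Cerulean), 50 nM in PBS/1 mM DTT/0.02% Tween-20/0.1% BSA, preincubated 5 min RT with compound; 0.125 microM importin beta added, 45 min RT, CFP/YFP FRET ratio read.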
Rango release inh – qHTS Assay for Inhibitors of RanGTP induced Rango (Ran-regulated importin-beta cargo) - Importin beta complex dissociation. Biochemical FRET Rango-importin beta, RanGTP-induced dissociation. Potency, µM (titrated, usually from 46.1 µM), without a hit: at the highest dose activity change, negative = inhibition. 0.071% of 340,000 active. AID 540253, 2011. Snurportin-1 (Homo sapiens) + GTP-binding nuclear protein Ran (Homo sapiens) + Importin …; active means falling FRET ratio curve, often poorly fitted, with flat reads before Ran was added; inconclusive means other falling curves, or compound fluorescence or quenching; inactive means flat or rising ratio curve;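 note: potency is the fitted concentration of half-maximal effect; % of control where 0% means no effect; nearly all actives have a fitted effect of over 45% in size; -100% = wells without RanGTP and RCC1; the record marks most hits as doubtful in a second field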
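Rango/importin beta premix (0.1/0.25 uM final), PBS + 1 mM DTT + 0.02% Tween-20 + 0.1% BSA; cpd 5 min RT; FRET pre-read; + RanGTP-RCC1 (0.6 uM Ran, 2 mM GTP, 0.2 uM RCC1); 45 min RT; FRET post-read, ex 430, em 486/530 nm.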
miR-21 FLuc – qHTS Assay for Modulators of miRNAs and/orActivators of miR-21. HeLa miR-21 FLuc reporter, luciferase, 48 h. Potency, µM (highest dose often 38.3 µM), for the others: at the highest dose reporter change, positive = more light. 340,000 tested, under 10 active. AID 2288, 2010; active = well fitted rising curve with a large enough effect; inconclusive = small, poorly fitted or top-dose-only effect; inactive = no such curve, though single readings can be large or run the other way;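 note: % of control where 0% means no effect; miR-21 action dims this reporter so a rising signal means less miR-21 action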
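HeLa miR-21-FLuc reporter line, endogenous miR-21; 2000 cells/well in DMEM/10% FBS; compound titration up to ~40uM final, 48 h, 37 degree Celsius; luciferase detection reagent, 15 min lysis, CCD luminescence.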
* = called active by the depositor; ? = inconclusive; · = no result given; [ ] = dose if it differs, or a comment.

SMILES | Rango release inh | GLA inh pH 4.5 | Rango complex inh | miR-21 FLuc
C=CCNc1nnc(SCC(=O)Nc2ccccc2OC)c2ccccc12 | -2% | · | 1.8% | -1%
Cc1cccc(Nc2nc(NCC3CCCO3)nc(N)c2[N+](=O)[O-])c1 (stereo not given) | 0% | 3 | -1.6% | -12%
N#C/C(=C/c1ccco1)c1nc2ccccc2s1 | ? | 5 | ? | -52%
O=c1cc(CN2CCN(Cc3ccccc3)CC2)c2cc3c(cc2o1)CCC3 | -3% | -2 | -1.0% | -5%
COc1cccc(-c2nc3c(c(SCC(=O)N4CCOCC4)n2)Cc2c(CO)cnc(C)c2O3)c1 | 2% | · | 0.0% | 0%
COc1ccccc1C(CNc1ncccc1[N+](=O)[O-])N(C)C (stereo not given) | 23% | · | 2.2% | -1%
CCCN(C(=O)Cn1c(C(F)(F)F)nc2ccccc21)C1CCS(=O)(=O)C1 (stereo not given) | -6% | · | -0.1% | ·
N#Cc1ccc(CSc2ccc(S(=O)(=O)N3CCCC3)cn2)cc1 | 28% | · | 0.0% | ·
N/C(=N\OC(=O)CC1CCCCC1)c1ccc(Br)cc1 | 9% | · | 0.8% | -12%
COc1ccc(NC(=O)CSc2nnc3ccc(-c4cccnc4)nn23)cc1OC | -1% | · | 1.6% | ·
COc1ccc(S(=O)(=O)N2CCN(CCCOc3ccc(F)cc3)CC2)cc1OC | -12% | · | ? | 25%
CN(C(=O)COC(=O)CCC(=O)c1ccc(Cl)cc1)c1c(N)n(Cc2ccccc2)c(=O)[nH]c1=O | 6% | · | -1.9% | ·
CC(=O)Nc1ccc(S(=O)(=O)N2CCC(N3CCCCCC3)CC2)cc1 | 12% | · | -1.2% | -5%
Cc1ccc(C(=O)Nc2ccc3c(c2)C(=O)NC3=O)cc1 | -14% | · | -3.9% | -5%
COc1ccc(C(O)(CC(C)C)C(CN2CCOCC2)c2ccccc2)cc1 (stereo not given) | 2% | · | -0.9% | 28%
NS(=O)(=O)c1cc(C(=O)NC2CCSc3ccccc32)ccc1Cl (stereo not given) | 0% | · | -3.3% | -4%
O=C(Nc1ccc2nc(-c3cccnc3)[nH]c2c1)c1ccco1 | -2% | 2 | -0.8% | -29%
CCOC(=O)c1ccc(NC(=O)c2nc[nH]c2C(=O)NCCNC(=O)c2[nH]cnc2C(=O)Nc2ccc(C(=O)OCC)cc2)cc1 | -8% | · | -1.6% | ·
C#CC(CC)(CC)NC(=O)/C=C/C(=O)O | -7% | 0 | 0.0% | 1%
[O-]c1c[n+](-c2ccccc2)no1 | 12% | -4 | -0.6% | -7%
C/C(=N\NC(=O)Cn1ccc(C(F)(F)F)n1)c1ccco1 | -23% | -10 | -2.3% | 6%
c1coc(CNCc2cccs2)c1 | -6% | -6 | -1.9% | -2%
COc1ccccc1NC(=O)C1(c2ccccc2)CCCC1 | 21% | 3 | ? | 3%
COc1cccc(-c2cc(C(=O)NC3CCCCC3)no2)c1 | -14% | · | -0.3% | -63%
CCc1noc(C)c1C(=O)Nc1nc2c(C)cc(C)cc2s1 | 1% | · | 2.0% | ·
CCCCn1cc2c(c1-c1cccc(C)c1)c(=O)n(C)c(=O)n2C | 4% | -4 | 4.8% | 0%
O=C(CSc1ncnc2ccccc12)c1cccs1 | ? | -5 | ? | -46%
Oc1ccc2ccccc2c1CNn1cnnc1 | 12% | 20 | -0.6% | -1%
COc1ccccc1NC(=S)NNC(=O)c1ccncc1 | 0% | 4 | -1.2% | -14%
Cc1c(C(=O)OCC(=O)NC2CCCCC2)oc2ccccc12 | -7% | · | 0.1% | ·
O=c1[nH]nc(-c2ccc(F)cc2)cc1-c1ccccc1 | -2% | · | -0.7% | -11%
O=C(NN1C(=O)C2C3C=CC(C4CC34)C2C1=O)c1cccc(Br)c1 (stereo not given) | -7% | -7 | -3.4% | 0%
O=C(COC(=O)c1cccc(S(=O)(=O)N2CCCCCC2)c1)Nc1ccccc1 | -8% | · | 4.2% | ·
COc1ccccc1NC(=O)CN1CCN(CC(=O)Nc2ccc(F)cc2F)CC1 | -15% | · | ? | -39%
NC(=O)COc1ccc(/C=N/NC(=O)C2CCCN2S(=O)(=O)c2ccc(Cl)cc2)cc1 (stereo not given) | 2% | 1 | -5.3% | 0%
CCCCn1c(-c2ccc([N+](=O)[O-])cc2)n[nH]c1=S | 3% | 5 | 0.0% | 1%
COc1cc(NC(=O)CSc2nnc(-c3cc(C)on3)o2)cc(OC)c1 | 0% | · | 1.9% | 3%
O=C(CSc1ncnc2c1cnn2-c1ccc(F)cc1)NCC1CCCO1 (stereo not given) | -2% | · | -0.2% | -6%
Clc1cccc(C2CCN(Cc3nc(COc4ccccc4)no3)C2)c1 (stereo not given) | 8% | -5 | -1.2% | 0%
Cc1ccc(C(=O)COC(=O)c2cnccn2)cc1C | · | -9 | · | -2%
O=C(O)c1cccc(NS(=O)(=O)c2ccc(Oc3ccc(S(=O)(=O)Nc4cccc(C(=O)O)c4)cc3)cc2)c1 | -11% | · | -0.7% | ·
N#CCOc1coc(CN2CCN(c3ccccc3)CC2)cc1=O | -18% | · | -0.6% | 4%
Cc1ccc(Cc2c[nH]c(=S)s2)cc1 | -9% | -1 | -0.4% | 10%
CSc1nc(-c2ccco2)nn1S(C)(=O)=O | 6% | 0 | -1.8% | -6%
O=[N+]([O-])c1ccc(Nc2ccccc2O)c2nonc12 | 16% | · | 3.7% | -1%
CCOC(=O)N1CCC(n2c(SCC(=O)NCCC3=CCCCC3)nc3ccccc3c2=O)CC1 | -5% | -7 | 0.9% | -1%
CCn1ncc(C2=NOC(C(=O)Nc3ccc(C)cc3)C2)c1C (stereo not given) | 1% | 8 | 0.7% | 8%
O=C(N/N=C/c1cc2c(cc1Br)OCO2)c1cccnc1 | -10% | 2[21.1 µM] | -1.3% | -9%
Cc1cccc(-n2c(O)c(C=NC3CCS(=O)(=O)C3)c3ccccc3c2=O)c1 (stereo not given) | 1% | -1 | -0.6% | -3%
COC(=O)c1ccc(SCC(=O)NCc2ccccc2)c([N+](=O)[O-])c1 | 12% | · | ? | -7%
COc1cccc(-c2nc(CS(=O)CC(=O)NC3CCCCC3)c(C)o2)c1 (stereo not given) | 1% | · | -4.4% | 1%
COc1ccc(N2CCN(C(=O)COc3ncnc4ccccc34)CC2)cc1 | 7% | 0 | -0.1% | 0%
Cc1ccc(-n2ccnc(SCC(=O)NC3CCCC3)c2=O)cc1Cl | 1% | · | -3.2% | ·
CC12COC3(C(=O)Nc4ccc(Cl)cn4)CC1CCC32C (stereo not given) | 4% | 0 | 1.6% | -4%
CN(C(=O)c1ccccn1)c1nnc(-c2cnccn2)s1 | -9% | 11 | 1.2% | -10%
Cc1cc(C)cc(N(CC(=O)N2CCN(c3ccccc3)CC2)S(=O)(=O)c2c(C)noc2C)c1 | 22% | -3 | 3.0% | 6%
CSc1nc(C)cc(OCCO)n1 | 6% | -6 | ? | -7%
CN1CCN(NC(=O)c2cccc(C(F)(F)F)c2)CC1 | 8% | 5 | -2.8% | 8%
COc1cccc(C(=O)NC2CCSC2=O)c1 (stereo not given) | -5% | 2 | 0.3% | -7%
O=S(=O)(c1ccccc1)N1CCN=C1SCc1ccccc1 | -3% | -5 | -0.7% | -16%

Exported with values under each structure: part of the list above
Results follow in this order: Rango release inh | GLA inh pH 4.5 | Rango complex inh | miR-21 FLuc
CSc1nc(-c2ccco2)nn1S(C)(=O)=O
    6% | 0 | -1.8% | -6%
CCn1ncc(C2=NOC(C(=O)Nc3ccc(C)cc3)C2)c1C (stereo not given)
    1% | 8 | 0.7% | 8%
COc1cccc(-c2nc(CS(=O)CC(=O)NC3CCCCC3)c(C)o2)c1 (stereo not given)
    1% | · | -4.4% | 1%
Clc1cccc(C2CCN(Cc3nc(COc4ccccc4)no3)C2)c1 (stereo not given)
    8% | -5 | -1.2% | 0%
CN1CCN(NC(=O)c2cccc(C(F)(F)F)c2)CC1
    8% | 5 | -2.8% | 8%

Among those listed so far, these have a cyano group:
SMILES | Rango release inh | GLA inh pH 4.5 | Rango complex inh | miR-21 FLuc
N#C/C(=C/c1ccco1)c1nc2ccccc2s1 | ? | 5 | ? | -52%
N#Cc1ccc(CSc2ccc(S(=O)(=O)N3CCCC3)cn2)cc1 | 28% | · | 0.0% | ·
N#CCOc1coc(CN2CCN(c3ccccc3)CC2)cc1=O | -18% | · | -0.6% | 4%

Later entries:
SMILES | Rango release inh | GLA inh pH 4.5 | Rango complex inh | miR-21 FLuc
CN(c1ccccc1)S(=O)(=O)c1cccc(NC(=O)c2cccc(C#N)c2)c1 | 5% | · | 0.3% | ·
Cc1ccc2nc(-c3ccc(NC(=O)C4CCCO4)cc3)[nH]c2c1 (stereo not given) | 3% | -4 | 0.0% | 9%
O=C(Nc1cccc(-c2cccc(Cl)c2)c1)C1CCN(Cc2ccccn2)CC1 | -5% | · | -0.2% | 27%
CCCOc1ccc(C(C)=O)cc1Cc1c(O)nc(SC)[nH]c1=O | 17% | · | 2.5% | 8%
O=C(CCn1c(=O)c2sccc2n(CC(=O)NCc2ccco2)c1=O)NCc1ccccc1 | 1% | -21 | 6.8% | -3%
CSc1ccccc1NC(=O)CNCCCN1CCOCC1 | -5% | 5 | 0.5% | -2%
CCCn1c(=O)c(C(=O)NNC(=O)c2ccccc2Cl)c(O)c2ccccc21 | -2% | · | ? | 2%
COc1cc(OC)c2ccc(=O)oc2c1C(CCN1CCN(c2ccccc2)CC1)c1ccc(N(C)C)cc1 (stereo not given) | -14% | 13 | -1.4% | -1%
CCOC(=O)c1[nH]c(Cc2[nH]c(C(=O)OCC)c(C)c2CCC(=O)OC)c(CCC(=O)OC)c1C | -13% | -6 | -0.3% | -6%
COC(=O)COC(=O)c1ccc(-n2nnnc2SC)cc1 | 8% | 4 | -0.8% | -4%
Cc1ccc(CNC(=O)C2CCN(C(=O)c3cccc(Cl)c3)CC2)cc1 | 0% | · | -0.1% | 0%
COC(=O)C1=CNC=C(C(=O)OC)C1c1cccc2ccccc12 | -13% | · | ? | 16%
CC(C)NC(=O)N(C)C[C@H]1Oc2c(NS(=O)(=O)c3cccs3)cccc2C(=O)N([C@H](C)CO)C[C@@H]1C | 21% | · | 2.0% | ·
CCN(CC)CCNC(=O)NC1CCCCC1 | -1% | 0 | 0.0% | -7%
CC(C)c1onc(C(=O)NC2CCCCC2)c1[N+](=O)[O-] | 1% | 0[21.1 µM] | -0.3% | -5%
CCc1ccccc1N(C(=O)c1snc(C(N)=O)c1N)C(C(=O)NCC1CCCO1)c1ccc(C)o1 (stereo not given) | 0% | · | -11% | 23%
Nc1c(N(CCC2=CCCCC2)C(=O)c2ccccc2F)c(=O)[nH]c(=O)n1Cc1ccccc1 | 4% | · | -5.0% | ·
Cc1ccc(NC(=O)COC(=O)/C(=C/c2cccs2)c2cccs2)cc1S(=O)(=O)N(C)C | 2% | -21 | -0.9% | 9%
CCn1c(SCC(=O)NCC(=O)Nc2ccc(F)cc2)nnc1-c1cccs1 | 0% | 3 | 0.0% | 1%
O=C(Nc1nc2c(s1)CCCC2)c1nn(Cc2ccccc2)c(=O)c2ccccc12 | 12% | -6 | -0.8% | -5%
O=C(CNC(=O)c1ccc2c(c1)OCCO2)N/N=C/c1ccco1 | 1% | -1 | 4.5% | 1%
COc1ccc(OC)c(NC2c3ncccc3C(=O)N2Cc2ccco2)c1 (stereo not given) | -9% | -16 | 3.8% | -4%
C=CCn1c(N)cc(=O)nc1SCC(=O)N(c1ccccc1)c1ccccc1 | -3% | 4 | 1.5% | 1%
CCS(=O)(=O)NCc1cn2c(C)csc2n1 | 0% | 2 | 3.6% | -15%

An excerpt; rates above refer to the full screens.
